Screening data deposited in PubChem BioAssay by Broad Institute.
Vaccinia stage: blocks a specific stage of Vaccinia orthopoxvirus infection; activity change (mCherry), % (concentration not given with the values); AID 1053133; actives 0.01% (n = 89,000); Vaccinia-infected cells, mCherry/Venus stage reporter fluorescence; stronger effect = lower value; some inactives read as strong as hits;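 active means mCherry past -33% and 40 or more points under the early reporter, replicates agreeing; inconclusive means past -33% without that gap or agreement; tested in A549 cells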;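 further: scaled between vehicle wells and reference inhibitor wells; 23 nL library stock went into each well; one replicate is shown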
Vaccinia stage Venus: also measured in Vaccinia stage; calls as there; activity change (Venus), %; measured here: Venus reporter, other viral stage;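 negative = less Venus signal; first of two replicates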
Starred values were filed as active, the others as inactive; ? = inconclusive; nt = no result given; & = joins results of further samples. Some of the compounds tested. The share of hits here may be higher or lower than overall.

Sample of the layout, six compounds:
SMILES | Vaccinia stage | Vaccinia stage Venus
CC(C)C#Cc1ccc([C@@H]2[C@H](C#N)N(C(=O)c3ccccn3)[C@H]2CO)cc1 | -30.2 | -25.6
CN(C)C(=O)C[C@@H]1C=C[C@H](NC(=O)C2CCC2)[C@H](CO)O1 | -1.1 | 4.1
CC(C)NC(=O)Nc1ccc2c(c1)C(=O)N([C@H](C)CO)C[C@H](C)[C@H](CN(C)Cc1ccc(-c3ccccc3)cc1)O2 | -18.1 | -11.6
C[C@H]1CN([C@@H](C)CO)C(=O)Cc2cc(NS(=O)(=O)c3ccccc3)ccc2O[C@H]1CN(C)C(=O)Nc1ccc(C(F)(F)F)cc1 | -6.0 | -13.9
C/C=C/c1cnc2c(c1)C(=O)N([C@H](C)CO)C[C@@H](C)[C@@H](CN(C)C(=O)Nc1c(C)noc1C)O2 | 16.6 | 19.3
CC=Cc1ccc2n(c1=O)C[C@H]1[C@H](CO)[C@@H](C(=O)N(C)C)N(C(=O)CC3CC3)[C@@H]21 (mixture of isomers) | 11.0 | 6.6

All compounds of this part (from the top)
SMILES | Vaccinia stage | Vaccinia stage Venus
CC(C)C#Cc1ccc([C@@H]2[C@H](C#N)N(C(=O)c3ccccn3)[C@H]2CO)cc1 | -30.2 | -25.6
CN(C)C(=O)C[C@@H]1C=C[C@H](NC(=O)C2CCC2)[C@H](CO)O1 | -1.1 | 4.1
CC(C)NC(=O)Nc1ccc2c(c1)C(=O)N([C@H](C)CO)C[C@H](C)[C@H](CN(C)Cc1ccc(-c3ccccc3)cc1)O2 | -18.1 | -11.6
C[C@H]1CN([C@@H](C)CO)C(=O)Cc2cc(NS(=O)(=O)c3ccccc3)ccc2O[C@H]1CN(C)C(=O)Nc1ccc(C(F)(F)F)cc1 | -6.0 | -13.9
C/C=C/c1cnc2c(c1)C(=O)N([C@H](C)CO)C[C@@H](C)[C@@H](CN(C)C(=O)Nc1c(C)noc1C)O2 | 16.6 | 19.3
CC=Cc1ccc2n(c1=O)C[C@H]1[C@H](CO)[C@@H](C(=O)N(C)C)N(C(=O)CC3CC3)[C@@H]21 (mixture of isomers) | 11.0 | 6.6
N#C[C@H]1[C@H](c2ccccc2)[C@H](CO)N1S(=O)(=O)Cc1ccccc1 | 17.8 | 11.8
C[C@H]1CCCCO[C@H](CN(C)Cc2ccccc2)[C@@H](C)CN([C@@H](C)CO)C(=O)c2cc(NS(=O)(=O)c3ccccc3)ccc2O1 | ? | nt
C[C@H](CO)N1C[C@H](C)[C@H](CN(C)C(=O)c2ccccn2)Oc2ncc(C#Cc3ccccn3)cc2C1=O | 19.0 | 13.1
C[C@H](CO)N1C[C@H](C)[C@@H](CN(C)Cc2ccc(Cl)c(Cl)c2)Oc2c(NS(=O)(=O)c3ccc(F)cc3)cccc2C1=O | -10.6 | -9.1
C[C@@H]1CN([C@@H](C)CO)C(=O)c2c(c3ccccc3n2C)-c2ccccc2CO[C@H]1CN(C)C(=O)c1ccncc1 | 8.7 | -0.5
CCCNC(=O)c1cc2c(c(-c3cccc(-c4cccc(OC)c4)c3)n1)[C@@H](CCO)N([S@](=O)C(C)(C)C)C2 | -32.2 | -0.2
CO[C@@H]1CN(C)C(=O)c2cc(NC(=O)NC(C)C)ccc2OC[C@H](C)N(Cc2ccccn2)C[C@@H]1C | 7.6 | 2.2
O=C(NCCc1ccccc1)[C@H]1[C@H](CO)[C@H]2Cn3c(cccc3=O)[C@H]2N1Cc1ccncc1 | 9.1 | 7.5
O=C(Nc1ccccc1)C1=C[C@H](c2coc3ccccc3c2=O)C[C@H](OCCCCO)O1 | 7.1 | -0.1
C[C@H](CO)N1C[C@H](C)[C@@H](CN(C)Cc2ccc3c(c2)OCO3)Oc2c(NS(=O)(=O)c3ccc(F)cc3)cccc2C1=O | 10.8 | 11.6
CC(C)C#Cc1ccc2c(c1)O[C@@H](CN(C)S(=O)(=O)c1cn(C)cn1)[C@@H](C)CN([C@@H](C)CO)S2(=O)=O | -7.6 | -12.2
COc1ccc(S(=O)(=O)N(C)C[C@@H]2Oc3cc(-c4ccccc4OC)ccc3S(=O)(=O)N([C@@H](C)CO)C[C@H]2C)cc1 | -17.6 | -21.6
N#C[C@H]1[C@H](c2ccc(-c3ccccc3)cc2)[C@@H](CO)N1C(=O)Cc1ccccc1 | -33.8 | -23.7
COCC(=O)N1[C@H](CO)[C@@H]2c3ccccc3N(C(=O)Nc3ccccc3Cl)C[C@@H]21 | 13.1 | 8.2
O=C(C1CCOCC1)N1CC(=O)N2[C@@H](CO)[C@H](c3ccc(Br)cc3)[C@@H]2C1 | 14.2 | 8.8
CC(=O)N1[C@@H](CO)[C@@H](c2ccccc2)[C@@H]1CN(CC1CCC1)C(=O)CN(C)C | 9.1 | 3.3
O=C(Nc1ccc(F)cc1)N1C[C@@H]2[C@H](c3ccccc31)[C@H](CO)N2Cc1ccccc1 | -19.9 | -1.6
COc1ccc(S(=O)(=O)N(C)C[C@@H]2Oc3ccc(NC(=O)Nc4ccc5c(c4)OCO5)cc3CC(=O)N([C@H](C)CO)C[C@@H]2C)cc1 | -16.5 | -1.9
Cc1ccc(S(=O)(=O)Nc2ccc3c(c2)C(=O)N([C@H](C)CO)C[C@H](C)[C@@H](CN(C)C(=O)NC(C)C)OCCCC[C@H](C)O3)cc1 | -12.2 | -11.8
Next records follow.
SMILES | Vaccinia stage | Vaccinia stage Venus
N#C[C@@H]1[C@H](c2ccc(C#CC3(O)CCCC3)cc2)[C@H](CO)N1C(=O)C1CCC1 | -9.3 | -9.4
C[C@H]1CN([C@@H](C)CO)C(=O)c2cc(C3=CCCCC3)cnc2O[C@H]1CN(C)Cc1ccccc1 | -20.1 | -13.6
C[C@H](CO)N1C[C@H](C)[C@@H](CN(C)C)Oc2cc(-c3cncnc3)ccc2S1(=O)=O | 8.9 | 6.7
COC(=O)C[C@H]1CC[C@@H]2[C@H](COc3ccc(NC(=O)Nc4cccc(C#N)c4)cc3C(=O)N2C)O1 | 10.6 | 2.2
CN1CCN(C(=O)C[C@@H]2CC[C@H]3[C@@H](COC[C@H](O)CN3C(=O)Cc3ccccc3)O2)CC1 | 23.8 | 9.0
CCC(=O)N1CC2(CN(C(=O)Cc3ccccc3)C2)c2c(n(C)c3cc(OC)ccc23)[C@H]1CO | -11.4 | -13.4
COc1ccc(S(=O)(=O)N[C@H]2CC[C@H](CCn3cc(-c4ccccc4F)nn3)O[C@H]2CO)cc1 | 6.8 | -4.0
O=C(C[C@H]1CC[C@@H]2[C@H](COC[C@@H](O)CN2S(=O)(=O)c2cccc(F)c2)O1)Nc1ccc(-c2ccccc2)cc1 | ? | nt
Cc1ccc(S(=O)(=O)N(C)C[C@@H]2Oc3ncc(-c4cc5ccccc5o4)cc3C(=O)N([C@H](C)CO)C[C@@H]2C)cc1 | ? | nt
CNC(=O)C[C@@H]1CC[C@H]2[C@@H](COc3ccc(NC(=O)NC4CCCC4)cc3C(=O)N2C)O1 | 5.5 | 1.5
COc1ccccc1-c1ccc2n(c1=O)C[C@H]1[C@H](CO)[C@@H](C(=O)NC3CCC3)N(C(C)=O)[C@@H]21 | -1.3 | -2.7
C[C@H](CO)N1C[C@H](C)[C@H](CN(C)S(=O)(=O)c2ccc(F)cc2)Oc2ncccc2C1=O | 41.7 | 40.2
COC(=O)[C@@H]1[C@@H](CO)[C@@H]2Cn3c(ccc(-c4cncnc4)c3=O)[C@@H]2N1C(=O)C1CCC1 | 1.6 | 5.9
C[C@H]1CN([C@@H](C)CO)S(=O)(=O)c2ccc(C#CC3CC3)cc2O[C@@H]1CN(C)C(=O)c1cccnc1 | 2.7 | 7.1
Cc1ccccc1-c1ccc2c(c1)O[C@@H](CN(C)C(=O)Nc1ccc(C(F)(F)F)cc1)[C@@H](C)CN([C@H](C)CO)S2(=O)=O | ? | nt
C[C@@H]1CN([C@@H](C)CO)C(=O)c2cc(NC(=O)c3ccncc3)ccc2O[C@H]1CN(C)C(=O)Nc1ccc2c(c1)OCO2 | 38.2 | 12.7
CO[C@@H]1CN(C)C(=O)c2cc(NC(=O)C3CC3)ccc2OC[C@@H](C)N(CC2CCOCC2)C[C@H]1C | 2.6 | 0.0
O=C(CN1CCOCC1)N[C@H]1CC[C@H](CCNC(=O)Nc2cc(F)ccc2F)O[C@@H]1CO | -1.7 | 1.4
C[C@H](O)C#Cc1ccc2c(c1)O[C@H](CN(C)C(=O)c1ccncc1)[C@H](C)CN([C@@H](C)CO)S2(=O)=O | 11.1 | 18.0
COc1cccc(NC(=O)N(C)C[C@H]2Oc3cc(C#Cc4ccc(F)cc4)ccc3S(=O)(=O)N([C@@H](C)CO)C[C@@H]2C)c1 | ? | nt
COc1ccc2c3c(n(C)c2c1)[C@H](CO)N(Cc1ccncc1)CC31CCN(C(=O)C2CCCC2)CC1 | ? | nt
CCCC#Cc1cnc2c(c1)C(=O)N([C@H](C)CO)C[C@@H](C)[C@H](CN(C)Cc1cccnc1)O2 | 6.3 | 8.3
COc1cccc(NC(=O)C[C@@H]2CC[C@@H]3[C@@H](COc4ccc(NC(=O)C5CCCCC5)cc4C(=O)N3C)O2)c1 | -10.5 | -5.2
C[C@H](CO)N1C[C@H](C)[C@H](CN(C)S(=O)(=O)c2ccc(Cl)cc2)Oc2c(NS(=O)(=O)c3ccc(F)cc3)cccc2C1=O | -20.5 | -20.9
CCCc1cn(CC[C@@H]2CC[C@@H](NC(=O)C3CCCCC3)[C@H](CO)O2)nn1 | 12.0 | 0.5
Next results
SMILES | Vaccinia stage | Vaccinia stage Venus
O=C(CC1CC1)N1[C@@H](CO)[C@@H]2c3ccccc3N(S(=O)(=O)c3ccccc3F)C[C@@H]21 | -18.0 | -13.5
COc1ccc(NC(=O)N(C)C[C@@H]2Oc3ncc(C4=CCCC4)cc3C(=O)N([C@H](C)CO)C[C@@H]2C)cc1 | 3.1 | -3.7
C[C@@H]1CN([C@@H](C)CO)S(=O)(=O)c2ccc(C#CC3CC3)cc2O[C@H]1CN(C)Cc1ccccn1 | ? | nt
O=C(NC[C@H]1[C@@H](c2ccccc2)[C@@H](CO)N1C(=O)C1CC1)NC1CCCC1 | 10.9 | 8.2
COc1ccc(-c2ccc([C@H]3[C@@H](C#N)N(C(=O)c4cccc(F)c4)[C@@H]3CO)cc2)cc1 | ? | nt
Cc1noc(C)c1NC(=O)Nc1cccc2c1O[C@H](CN(C)S(=O)(=O)c1ccc(F)cc1)[C@@H](C)CN([C@H](C)CO)C2=O | 12.1 | 4.1
CN(C)Cc1cn(CC[C@@H]2CC[C@@H](N)[C@H](CO)O2)nn1 | 10.3 | 21.0
COc1ccc(NC(=O)N(C)C[C@@H]2Oc3c(NC(=O)C4CCCCC4)cccc3C(=O)N([C@H](C)CO)C[C@@H]2C)cc1 | 15.2 | 7.2
Cc1ccc(S(=O)(=O)Nc2ccc3c(c2)C(=O)N([C@H](C)CO)C[C@H](C)[C@@H](CN(C)S(=O)(=O)c2ccc(F)cc2)OCCCC[C@@H](C)O3)cc1 | -6.0 | -4.0
C[C@@H]1CN([C@H](C)CO)C(=O)c2cc(NC(=O)NC3CCCCC3)ccc2O[C@@H](C)CCCCO[C@@H]1CN(C)Cc1ccc(C(F)(F)F)cc1 | -33.8 | -22.6
COCC#Cc1cnc2c(c1)C(=O)N([C@@H](C)CO)C[C@@H](C)[C@H](CN(C)C(C)=O)O2 | 6.5 | 4.7
O=C(C[C@@H]1CC[C@@H](NC(=O)Nc2cc(F)ccc2F)[C@H](CO)O1)NCc1ccccn1 | -2.0 | -4.5
COCC#Cc1ccc([C@@H]2[C@@H](CO)N3C(=O)CN(C(=O)c4cccnc4)C[C@H]23)cc1 | 48.6 | 23.7
O=C(C[C@@H]1C[C@@H]2c3cc(NS(=O)(=O)c4ccc(F)cc4)ccc3O[C@@H]2[C@H](CO)O1)NCCc1ccccc1 | -11.5 | -11.3
C[C@@H]1CN([C@@H](C)CO)C(=O)Cc2cc(NC(=O)Nc3ccc(F)cc3)ccc2O[C@@H]1CN(C)Cc1ccc(-c2ccccc2)cc1 | ? | nt
C[C@@H]1CCCCO[C@@H](CN(C)Cc2ccc(C(=O)O)cc2)[C@@H](C)CN([C@@H](C)CO)C(=O)c2cc(NC(=O)NC3CCCCC3)ccc2O1 | 18.3 | 10.8
C/C=C/c1ccc2c(c1)O[C@@H](CN(C)C(=O)C1CCOCC1)[C@@H](C)CN([C@@H](C)CO)S2(=O)=O | 16.8 | 9.7
O=C(CC1CC1)N1CC(=O)N2[C@@H](CO)[C@@H](c3ccc(-c4ccccc4)cc3)[C@@H]2C1 | -2.5 | -6.9
CCC(=O)Nc1ccc2c(c1)OC[C@@H](C)N(C(=O)CN(C)C)C[C@H](C)[C@H](OC)CN(C)C2=O | 11.9 | 8.5
C[C@H](CO)N1C[C@H](C)[C@@H](CN(C)C(=O)C2CCCCC2)OCc2cnnn2CCCC1=O | 7.0&8.5 | 7.9&7.7
CC(C)NC(=O)Nc1ccc2c(c1)C(=O)N([C@@H](C)CO)C[C@H](C)[C@H](CN(C)S(=O)(=O)c1cn(C)cn1)OCCCC[C@H](C)O2 | 17.9 | 10.9
C[C@H](CO)N1C[C@H](C)[C@H](CN(C)C(=O)Nc2ccc(C(F)(F)F)cc2)Oc2c(NC(=O)Nc3ccc4c(c3)OCO4)cccc2C1=O | ? | nt
COc1ccccc1-c1cn(CC[C@H]2CC[C@@H](NC(=O)C3CCC3)[C@@H](CO)O2)nn1 | 1.0 | 10.1
C[C@H](CO)N1C[C@H](C)[C@H](CN(C)C(=O)NC2CCCCC2)Oc2cc(C#Cc3ccc(F)cc3)ccc2S1(=O)=O | ? | nt
CN(C)CC(=O)N1[C@H](C#N)[C@@H](c2ccccc2-c2cccc(C(=O)N(C)C)c2)[C@H]1CO | 10.9 | 9.8
C[C@@H]1CN([C@@H](C)CO)C(=O)Cc2cc(NC(=O)CCN3CCOCC3)ccc2O[C@H]1CN(C)S(=O)(=O)c1cccs1 | -3.4 | -1.7
C[C@@H]1CN([C@H](C)CO)S(=O)(=O)c2ccc(-c3cccc(C(=O)N(C)C)c3)cc2O[C@@H]1CN(C)C(=O)Cc1ccccn1 | 4.2 | 1.6
